High-throughput results deposited in PubChem BioAssay by several laboratories.
AF4-AF9 inh: inhibitors of human MLL-AF4/AF9 interaction | actives 0.47% (n = 350,000) | AlphaScreen, biotin-AF4 peptide binding to FLAG-AF9 | inhibition, % at 10 µM | P42568 | AID 651704;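 active means every replicate reaching a set inhibition limit, whatever the replicate mean, cut at about 25% in these data; inconclusive means mean inhibition reaches that limit but some replicates miss it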;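 further: 0% = plate neutral control median and 100% = total signal loss; the record names both 10 and 1 µM as test concentration; the first replicate is given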
Target sequence (P42568 whole entry, looked up): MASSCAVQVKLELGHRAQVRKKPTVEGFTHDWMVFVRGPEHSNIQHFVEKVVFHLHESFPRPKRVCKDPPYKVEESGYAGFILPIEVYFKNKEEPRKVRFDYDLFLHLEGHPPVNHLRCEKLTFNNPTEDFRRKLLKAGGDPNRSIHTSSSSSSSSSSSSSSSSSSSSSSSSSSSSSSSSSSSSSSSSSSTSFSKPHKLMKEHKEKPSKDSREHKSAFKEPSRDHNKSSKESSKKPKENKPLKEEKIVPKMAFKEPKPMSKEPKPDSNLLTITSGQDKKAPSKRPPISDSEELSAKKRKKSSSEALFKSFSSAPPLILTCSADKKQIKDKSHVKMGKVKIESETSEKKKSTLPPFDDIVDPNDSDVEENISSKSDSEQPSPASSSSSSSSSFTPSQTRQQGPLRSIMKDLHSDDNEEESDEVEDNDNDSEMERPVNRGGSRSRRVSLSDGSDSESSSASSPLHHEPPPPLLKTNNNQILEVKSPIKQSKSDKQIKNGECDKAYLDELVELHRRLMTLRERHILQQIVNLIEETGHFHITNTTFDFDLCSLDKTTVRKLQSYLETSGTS
UCH37 DUB inh: human UCH37 deubiquitinating enzyme inhibition | Q9Y5K5 | actives 0.33% (n = 330,000) | purified proteasome/UCH37, Ub-AMC cleavage fluorescence | inhibition, % (concentration not given with the values);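 active means mean of two replicates above 20%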;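 further: 0% = compound-free wells with enzyme and 100% = wells lacking proteasome; stock transfer was 100 nL into about 20 µL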
Target sequence (Q9Y5K5 whole entry, looked up): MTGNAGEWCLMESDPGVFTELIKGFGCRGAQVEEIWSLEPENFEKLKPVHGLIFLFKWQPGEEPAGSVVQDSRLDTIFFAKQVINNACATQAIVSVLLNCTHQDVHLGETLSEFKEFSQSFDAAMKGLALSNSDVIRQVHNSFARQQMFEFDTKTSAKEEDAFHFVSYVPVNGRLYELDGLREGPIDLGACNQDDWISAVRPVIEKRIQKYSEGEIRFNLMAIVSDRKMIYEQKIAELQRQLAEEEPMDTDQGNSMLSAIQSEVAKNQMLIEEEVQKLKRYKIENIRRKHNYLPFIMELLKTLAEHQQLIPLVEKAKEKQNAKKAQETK
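Material: Human UCH37 enzyme supplied as purified proteasome complex | Schedule: 30 min preincubation with enzyme, 25 min cleavage at room temperature | Detection: AMC fluorescence 355/460 nm | Measure: % inhibition of Ub-AMC cleavage fluorescence | Controls: Wells without proteasome as full block, compound-free enzyme plus substrate as uninhibited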
Ecoli growth: E. coli growth inhibition; Escherichia coli growth, OD600, 23 h; hits give low values; actives 0.21% (n = 330,000); OD600 absorbance (no concentration beside the values);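 active means OD600 absorbance below the run mean of sample wells minus 3.6 SD, in any replicate, cut at about 0.56 in these data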;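 further: stock transfer was 300 nL into about 60 µL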
HNF4A DNA FP: change in binding of human HNF4 alpha to DNA; activity change, % at 10 µM; actives 0.3% (n = 360,000); HNF4a-FITC DNA binding, fluorescence polarization, 1 h; AID 1224865; in the data active means activity change above about 30%, passing the limit was not always enough;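 further: controls were the assay level and a saturating level of protein; the project sought stronger binding though the title names inhibitors; some compounds called inactive have numbers as strong as hits; positive values seem to mean higher polarization but the record does not say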
Vif A3G: HIV-1 Vif–A3G interaction blockers – biochemical, TR-FRET, GST-Vif 1-94, biotin-A3G peptide, dose response retest, primary screen (AID 1117319). TR-FRET GST-Vif / biotin-A3G peptide binding; higher % means a stronger effect; test concentration not given here; strong numbers were not always called active. one-dose inhibition, %; IC50 in µM for titrated hits. actives 0.57% (n = 260,000);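 active means above the screen mean plus three standard deviations and confirmed in dose response; inconclusive means results disagree or hit not tested in dose response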;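 further: Vif residues 1-94 fused to GST binding biotinylated APOBEC3G peptide 110-148; 0% = full assay without inhibitor and 100% = GST in place of GST-Vif; retest series ran down from 100 µM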
RanGTP-Imp inh: inhibitors of RanGTP-importin-beta interaction, primary screen, biochemical, FRET, CFP-Ran, YFP-importin-beta, homogeneous; actives 1.1% (n = 300,000); cell-free CFP-Ran/YFP-importin-beta FRET ratio; AID 2216; inhibition, % (test concentration not listed);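 active means most replicates above 15%; inconclusive means exactly half above 15%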;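 further: 0% = DMSO wells and 100% = Ran loaded with GDP instead of GTP; wells of about 40 µL received 100 nL stock; the first replicate is given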
FGF22 binding: FGF22 (human) thermal shift binding | AID 651658 | actives 1.5% (n = 340,000) | recombinant FGF22 thermal shift, SYPRO orange fluorescence; percent of sucrose octasulfate shift, DMSO zero | calls only at 9.99 µM | Q9HCT0;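 active means melting point raised past a set limit in the mean and every replicate; inconclusive means no clear call; three in four hits are not shown here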
Target sequence (Q9HCT0 whole entry, looked up): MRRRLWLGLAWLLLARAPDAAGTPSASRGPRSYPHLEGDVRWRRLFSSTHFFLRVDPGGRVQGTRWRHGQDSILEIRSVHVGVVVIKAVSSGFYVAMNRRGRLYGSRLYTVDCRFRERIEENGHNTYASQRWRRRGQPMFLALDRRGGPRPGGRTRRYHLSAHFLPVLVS
Active calls of the source: *; i = inactive; ? = inconclusive; . = no result given; & = joins results of further samples. This is a subset, so the mix of outcomes need not match the whole.

SMILES | AF4-AF9 inh | UCH37 DUB inh | Ecoli growth | HNF4A DNA FP | Vif A3G | RanGTP-Imp inh | FGF22 binding
COc1ccccc1Nc1nc2nonc2nc1N1CCC(C)CC1 | . | -1.0 | 0.72 | 2.0 | . | 2.4 | .
COc1cc2c(cc1OC)C(C)N(C(=O)c1c(-c3ccccc3)noc1C)CC2 (stereo unspecified) | -0.5 | -1.9 | 0.68 | 1.6 | -14% | 3.0 | i
O=C(NCc1cccc(C(F)(F)F)c1)N1CCN(S(=O)(=O)c2ccccc2F)CC1 | 0.4 | 1.7 | 0.7 | 1.9 | . | 0.4 | i
Cn1c(=O)c2[nH]c(C3CCCC3)nc2n(C)c1=O | 1.5 | 0.6 | 0.69 | 2.5 | . | -5.5 | i
O=C(NC1CCCC1)N[C@@H]1CC[C@@H](CC(=O)N2CCOCC2)O[C@@H]1CO | -1.0&-0.7 | . | . | 2.4 | . | . | i
Cc1nc(C)c(C(=O)Nc2cccc(C)c2C)s1 | 0.8 | -2.0 | 0.66 | 2.7 | . | -1.1 | i
COc1cccc(/C=C/C(=O)N2CCN(S(=O)(=O)c3ccccc3)CC2)c1 | 1.7 | . | . | -2.1 | 2% | . | i
COc1ccc(-n2ncc3c(N4CCN(c5cc(C)ccc5C)CC4)ncnc32)cc1 | 4.5 | 1.6 | 0.8 | -1.4 | 0% | 3.6 | i
CCCCCc1ccc(-c2cn(CC3CCCCC3)nn2)cc1 | -3.8 | 4.8 | 0.73 | -0.8 | . | -2.0 | i
CCCCNC(=O)C1c2ccccc2OCC(=O)N1CCc1ccc(OC)c(OC)c1 (stereo unspecified) | 1.6 | . | . | 3.0 | . | . | i
O=NN(Cc1cccnc1)Cc1cccnc1 | 8.2 | . | . | 2.7 | . | . | i
COCCCN1C(=O)C(=O)/C(=C(/O)c2ccc(S(=O)(=O)N3CCCCC3)cc2)C1c1cccc(OC)c1 (stereo unspecified) | -0.9 | 13 | 0.74 | 0.3 | . | 1.5 | i
CCC1=NN(C(=O)C(=O)Nc2ccc(Br)cc2)C(O)(C(F)(F)F)C1 (stereo unspecified) | -0.6 | 2.2 | 0.68 | 3.3 | 8% | ? | i
COC(=O)[C@]12CCCCC=C1N(Cc1ccco1)C(=O)[C@H](CC(=O)NCc1ccccc1)C2 | -2.2 | . | . | 0.9 | . | . | i
CC(=O)N1CCN=C1SCc1ccc(F)cc1 | -2.3 | 0.0 | 0.73 | -0.7 | 11% | 0.3 | i
CC(C)(C)c1ccc(OCC(=O)N/N=C/c2ccsc2)cc1 | . | . | . | 3.0 | 32% | -4.6 | .
CCC1=C(OC(=O)N(CC)CC)N2C(=O)OC(=NCCc3c[nH]c4ccccc34)[C@]2(Cc2ccccc2)[C@H]2C1=CC[C@H]1C(=O)N(CC)C(=O)[C@H]12 | . | 3.4 | . | -0.2 | . | 3.8 | i
CCOc1cc(C=O)c(Br)cc1OC1CCCC1 | . | 0.4 | 0.7 | -2.4 | -2% | -6.6 | .
CCOC(=O)C1=NS(=O)(=O)NC(C)=C1 | -7.9 | 0.9 | 0.69 | 2.3 | -7% | . | i
CC(NC(=O)CN(C)S(=O)(=O)c1cccc2nsnc12)c1ccccc1 (stereo unspecified) | -6.1 | 2.5 | 0.7 | 2.2 | . | -0.3 | i
Cc1cccc(NC(=O)CCn2nc(C)cc2C)c1 | . | 2.7 | 0.74 | -2.0 | 22% | 0.5 | .
Cc1ccc(C)c(-n2cc[nH]c2=S)c1 | . | 0.1 | 0.69 | 3.3 | 11% | 0.1 | .
CC(C)c1onc(C(=O)NCc2cccs2)c1[N+](=O)[O-] | 0.9 | 3.2 | 0.72 | 0.2 | 0% | 3.8 | i
Cc1ccc(-c2cc(C(=O)N/N=C/c3ccc([N+](=O)[O-])o3)c3ccccc3n2)o1 | 2.4 | . | . | -13 | 27% | . | i
Cn1c(=O)[nH]c(=O)c2c1nc(SCCN1CCCCC1)n2Cc1ccccc1 | . | 1.7 | 0.72 | -0.1 | 7% | 9.7 | .
CNC[C@H]1Oc2cc(Br)ccc2S(=O)(=O)N([C@@H](C)CO)C[C@@H]1C | 1.1&-3.7&-0.1 | . | . | 1.0 | . | . | i
Cc1ccccc1-n1c(SCC(=O)N(C)C2CCS(=O)(=O)C2)nnc1-c1ccncc1 (stereo unspecified) | -3.1 | 0.6 | 0.71 | -2.1 | ? | 6.3 | .
CCCCC(=O)NC(c1ccc(N(C)C)cc1)c1ccc2cccnc2c1O (stereo unspecified) | 57* | . | . | 0.4 | 20% | 1.6 | i
COc1ccc(NC(=O)CN(C)C(=O)CNC(=O)c2ccc(C)s2)cc1 | -0.8 | 2.8 | 0.67 | -2.0 | 6% | -5.1 | i
CCOC(=O)C1CCN(S(=O)(=O)c2ccc3oc(=O)ccc3c2)CC1 | -3.6 | 4.3 | 0.67 | -0.5 | . | ? | i
Cc1cc(=O)oc2cc(NC(=O)c3cccc(F)c3)ccc12 | -1.5 | -23 | 0.69 | 41* | -42% | -0.4 | i
CCOC(=O)C1(C#N)C(=O)CSC1=Nc1ccccc1Cl (stereo unspecified) | 2.0 | . | . | 2.6 | -3% | . | i
O=C(COc1ccccc1Cl)Nc1nc(-c2cccs2)cs1 | . | 1.8 | 0.69 | 0.6 | 11% | -0.1 | .
O=C(NNC(=O)c1cccc(-n2cnnn2)c1)c1ccccc1 | -1.3 | 2.9 | 0.71 | -1.3 | 12% | -0.1 | i
O=C(Cc1nc2ccccc2[nH]c1=O)c1ccc(Cl)cc1 | -1.5 | -1.5 | 0.71 | 18 | 11% | 39* | i
O=C(CN1C(=O)C2(OCCO2)c2ccccc21)c1ccc(F)cc1 | . | 3.8 | 0.64 | 0.1 | 12% | 0.6 | .
CCCCNS(=O)(=O)c1ccc(S(=O)(=O)N2CCC3(CC2)OCCO3)cc1 | . | 2.8 | 0.69 | -1.3 | 0% | 2.0 | .
CCCCCCn1c(=O)c(F)cn(Cc2ccc(OC)c([N+](=O)[O-])c2)c1=O | . | 3.2 | 0.69 | -2.1 | 5% | ? | .
COc1cc(NS(=O)(=O)c2cccc3nsnc23)c(C(=O)O)cc1OC | . | -5.2 | 0.76 | 0.0 | 7% | -3.0 | .
CC(C)(C)C1CCC(=NNC(=O)C2COc3ccccc3O2)CC1 (stereo unspecified) | 0.1 | 4.0 | 0.71 | -0.6 | 5% | . | i
O=C(Nc1ccc(Br)c(Cl)c1)c1ccco1 | . | 1.9 | 0.61 | 2.7 | -3% | -2.5 | .
Cc1ccccc1OCC(=O)NCC(=O)N/N=C/c1cccc([N+](=O)[O-])c1 | -2.8 | . | . | . | -3% | 1.8 | .
O=C(/C=C/Sc1ccccc1)c1ccc(Cl)cc1 | . | 6.0 | 0.7 | -3.8 | 3% | -2.1 | .
Cc1ccc(S(=O)(=O)N2CC(O)C[C@H]2C(=O)OCC(=O)N2CCN(c3ccc(F)cc3)CC2)cc1C (stereo partly specified) | 0.9 | 5.3 | 0.7 | -3.5 | . | . | i
CCN1C(=O)c2ccccc2S(=O)c2ccc(C(=O)NCCCN3CCCC3=O)cc21 (stereo unspecified) | -1.7 | 4.6 | 0.68 | 1.0 | 3% | 2.0 | i
Cc1oc(C(C)(C)C)cc1C(=O)Nc1cccc(C(=O)O)c1 | . | 2.0 | 0.72 | -2.3 | 2% | 3.2 | .
CCC(C)(C)NC(=O)C(c1ccc(OC)cc1)N(C(=O)CCC(=O)Nc1cc(C)on1)c1ccc(OC)c(OC)c1 (stereo unspecified) | 1.8 | -0.4 | 0.68 | -1.1 | . | -4.4 | i
CSCc1ccc(C(=O)OCC(=O)NC2CCCC2)o1 | -0.9 | . | . | 2.8 | -1% | . | i
O=c1oc2ccccc2cc1-c1nc2c(s1)CCCC2 | -14 | -289 | 0.69 | 4.1 | 7% | 83* | i
COc1ccccc1NC(=O)c1ccc(NC(=O)CN2CCN(C(=O)c3ccco3)CC2)cc1 | 0.9 | 2.3 | 0.74 | 1.9 | -9% | -0.3 | i
CCc1nc(SCC(=O)Nc2ccc([N+](=O)[O-])cc2)n[nH]1 | -1.4 | 1.3 | 0.64 | -2.3 | . | 3.0 | i
Clc1nnc(N2CCCCC2)c2ccccc12 | -8.4 | 3.7 | 0.73 | -4.2 | -9% | -3.2 | i
O=C(Cc1cccc(NC(=O)C2CCCN(C(=O)C3CC3)C2)c1)Nc1cccc(C(=O)N2CCCC2)c1 (stereo unspecified) | 0.0 | 0.7 | 0.73 | 5.8 | . | . | i
CC(=O)c1cccc(Oc2ncccn2)c1 | -1.3 | 0.5 | 0.67 | -6.0 | -8% | 4.4 | i
COc1ccc(-n2c(C)cc(-c3cn4cccc(C)c4n3)c2C)cc1 | 13 | -17 | 0.65 | 8.6 | -1% | 2.4 | .
COc1cc(C(=O)OC(C)c2ccc(F)cc2)ccc1OCC(=O)N1CCOCC1 (stereo unspecified) | 0.7 | -0.8 | 0.69 | 1.9 | 18% | . | i
O=C(NCCc1ccccc1C(F)(F)F)C1CCC(=O)N(C2CC2)C1 (stereo unspecified) | -0.1 | -0.9 | 0.69 | 1.6 | 7% | -2.7 | i
CC(C)(C)OC(=O)N[C@@H](C(=O)OC(C)(C)C)c1ccc2ccccc2c1 | . | 5.6 | . | -2.2 | . | . | i
COC(=O)c1ccc(NC(=O)c2cc3c(CO)cnc(C)c3oc2=Nc2cccc(C(N)=O)c2)cc1 | -16 | 3.2 | 0.7 | 2.8 | 5% | 2.8 | i
CC1CCCC(C)N1C(=O)c1ccc(S(=O)(=O)N2CCCC2)cc1 (stereo unspecified) | 1.2 | 1.9 | 0.67 | 3.7 | . | . | i

Other records follow:
SMILES | AF4-AF9 inh | UCH37 DUB inh | Ecoli growth | HNF4A DNA FP | Vif A3G | RanGTP-Imp inh | FGF22 binding
CCOC(=O)c1ccc(N2C(=O)CC(Nc3ccc(O)cc3)C2=O)cc1 (stereo unspecified) | -0.2 | 2.5 | 0.65 | -1.6 | . | 1.2 | i
CCc1cccc(NC(=S)N(CCN(C)C)C(C)c2ccncc2)c1 (stereo unspecified) | 2.6 | 1.5 | 0.65 | -2.4 | 13% | 3.0 | i
O=c1cnc2cc([N+](=O)[O-])ccc2[nH]1 | -2.9 | 7.5 | 0.71 | 2.3 | . | 0.6 | i
CCCCc1cc(=O)oc2cc(OCC(=O)NCC3CCC(C(=O)O)CC3)ccc12 (stereo unspecified) | -1.3 | -15 | 0.71 | 0.4 | . | -1.3 | i
CS(=O)(=O)Nc1cccc(C(=O)CC2(O)C(=O)Nc3ccc(Br)cc32)c1 (stereo unspecified) | -1.0 | -1.6 | 0.71 | 1.2 | 14%&-6% | -2.1 | .
COC(=O)[C@]1(Cc2ccccc2)N[C@H](c2ccc(-c3ccc(Cl)c(Cl)c3)cc2)[C@@H]2C(=O)N(C)C(=O)[C@@H]21 | -1.8 | 2.0 | . | -1.5 | . | 2.8 | i

2 of these compounds, set out differently.
Compound: CCc1nc(SCC(=O)Nc2ccc([N+](=O)[O-])cc2)n[nH]1
  AF4-AF9 inh: -1.4 | UCH37 DUB inh: 1.3 | Ecoli growth: 0.64 | HNF4A DNA FP: -2.3 | Vif A3G: . | RanGTP-Imp inh: 3.0 | FGF22 binding: i
Compound: O=C(NC1CCCC1)N[C@@H]1CC[C@@H](CC(=O)N2CCOCC2)O[C@@H]1CO
  AF4-AF9 inh: -1.0&-0.7 | UCH37 DUB inh: . | Ecoli growth: . | HNF4A DNA FP: 2.4 | Vif A3G: . | RanGTP-Imp inh: . | FGF22 binding: i
